FGF22 binding = shifts melting point of recombinant human FGF22 | Q9HCT0 | recombinant FGF22 thermal shift, SYPRO orange fluorescence; percent of sucrose octasulfate shift, DMSO zero | calls only at 9.99 µM | 1.5% of 340,000 active | AID 651658;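 active = melting point raised past a set limit in the mean and every replicate; three in four hits are not shown here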
Target sequence (Q9HCT0 whole entry, looked up): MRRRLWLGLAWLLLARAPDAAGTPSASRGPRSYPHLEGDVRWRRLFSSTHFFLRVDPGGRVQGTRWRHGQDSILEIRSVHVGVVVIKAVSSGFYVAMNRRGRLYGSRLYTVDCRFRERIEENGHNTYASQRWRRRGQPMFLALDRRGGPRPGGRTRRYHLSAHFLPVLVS
MLL AF4-AF9 inh = MLL-AF4/AF9 protein interaction inhibition; P42568; AID 651704; inhibition, % at 10 µM; 0.47% of 350,000 active; AlphaScreen, biotin-AF4 peptide binding to FLAG-AF9;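 active = every replicate reaching a set inhibition limit, whatever the replicate mean, cut at about 25% in these data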;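 also: 0% = plate neutral control median and 100% = total signal loss; the record names both 10 and 1 µM as test concentration; the first replicate is given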
Target sequence (P42568 whole entry, looked up): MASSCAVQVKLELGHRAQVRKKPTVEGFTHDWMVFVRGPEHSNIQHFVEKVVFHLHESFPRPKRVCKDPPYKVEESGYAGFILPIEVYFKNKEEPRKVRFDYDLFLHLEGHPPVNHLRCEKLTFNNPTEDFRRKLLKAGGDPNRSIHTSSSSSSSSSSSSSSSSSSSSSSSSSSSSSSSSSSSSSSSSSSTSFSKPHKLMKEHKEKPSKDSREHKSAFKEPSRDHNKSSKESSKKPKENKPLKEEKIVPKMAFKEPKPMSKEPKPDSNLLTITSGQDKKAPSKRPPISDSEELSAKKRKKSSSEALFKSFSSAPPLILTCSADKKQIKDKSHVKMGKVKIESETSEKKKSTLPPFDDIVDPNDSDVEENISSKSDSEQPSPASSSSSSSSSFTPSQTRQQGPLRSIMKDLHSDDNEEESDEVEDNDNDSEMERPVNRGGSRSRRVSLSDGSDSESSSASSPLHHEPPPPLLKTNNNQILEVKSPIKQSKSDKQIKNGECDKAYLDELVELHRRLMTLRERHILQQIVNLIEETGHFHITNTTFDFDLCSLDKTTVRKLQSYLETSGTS
Ecoli rRNA inh = selective bacterial rRNA inhibition in E. coli. GFP signal change (wild-type ribosome), % (test concentration not listed). E. coli WT GFP vs humanized-ribosome RFP mutants, fluorescence, 24 h; stronger effect = lower value; DMSO median 0, no signal -100. 1.6% of 350,000 active;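 active = significant combined selectivity score with lowered wild-type GFP, culture density cut under 30%, mutant RFP and density less affected; inactive = any of these conditions unmet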; also: one replicate is shown; some compounds called inactive have numbers as strong as hits
Ecoli rRNA inh OD600 = recorded beside Ecoli rRNA inh, whose call it bears; OD600 change, %; measured here: OD600 growth;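 optical density of the mix in the first replicate; 0 = DMSO median and -100 = no signal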
Ecoli rRNA inh RFP = recorded beside Ecoli rRNA inh, whose call it bears; RFP signal change, %; measured here: RFP humanized mutant strains;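 first replicate; 0 = DMSO median and -100 = no signal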
* hit, by the source's call; i = inactive; + = active, no number. The list is partial (hit frequency here may not be typical).

item | molecule | FGF22 binding | MLL AF4-AF9 inh | Ecoli rRNA inh | Ecoli rRNA inh OD600 | Ecoli rRNA inh RFP
1 | COc1cc(Cn2c3ccc(NC(=O)CCc4cccnc4)cc3c(=O)n2C)ccc1F | i | 1.4 | 2 | 3 | -1.4
2 | CC(C)NC(=O)Nc1ccc2c(c1)C(=O)N([C@@H](C)CO)C[C@@H](C)[C@@H](CN(C)C(=O)Nc1ccc3c(c1)OCO3)O2 | i | -3.4 | 2 | -6 | -2.4
3 | C[C@H]1CN([C@@H](C)CO)C(=O)Cc2cc(NS(=O)(=O)c3cccs3)ccc2O[C@@H]1CN(C)Cc1ccc(Cl)c(Cl)c1 | i | 2.3 | -4 | -4 | 1.8
4 | COc1ccc(S(=O)(=O)N(C)C[C@@H]2Oc3ccc(NC(=O)Cc4ccccc4)cc3C(=O)N([C@H](C)CO)C[C@@H]2C)cc1 | i | -0.3 | 1 | -8 | 0.2
5 | Cc1ccc(S(=O)(=O)Nc2cccc3c2O[C@H](CN(C)S(=O)(=O)c2cccs2)[C@H](C)CN([C@@H](C)CO)C3=O)cc1 | i | -3.7 | -1 | -6 | -2.8
6 | C[C@@H]1CN([C@H](C)CO)S(=O)(=O)c2ccc(Br)cc2O[C@H]1CN(C)C(=O)CN(C)C | i | -1.0 | 1 | 2 | 0.7
7 | C[C@H]1CN([C@@H](C)CO)C(=O)c2cc(NC(=O)C3CC3)ccc2O[C@H]1CN(C)S(=O)(=O)c1cn(C)cn1 | i | -2.3 | 7 | 5 | -0.6
8 | COc1ccc(NC(=O)Nc2ccc3c(c2)C(=O)N([C@@H](C)CO)C[C@@H](C)[C@H](CN(C)C(=O)Nc2ccc(F)cc2)OCCCC[C@@H](C)O3)cc1 | i | -0.9 | -1 | -8 | -4.7
9 | C[C@H](CO)N1C[C@H](C)[C@H](CN(C)C(=O)c2cnccn2)Oc2cc(Br)ccc2S1(=O)=O | i | -2.2 | -1 | 6 | -6.6
10 | COc1ccc(NC(=O)N(C)C[C@H]2OCCCC[C@@H](C)Oc3ccc(NS(=O)(=O)c4cn(C)cn4)cc3C(=O)N([C@H](C)CO)C[C@@H]2C)cc1 | i | -4.5 | 0 | 0 | -4.9
11 | C[C@@H]1CN([C@H](C)CO)C(=O)c2cccc(NC(=O)C3CC3)c2O[C@H]1CN(C)S(=O)(=O)c1cccs1 | i | -1.1 | 0 | 9 | -0.3
12 | Cc1nn(C)cc1NC(=O)C[C@H]1CC[C@@H]2[C@@H](COc3ccc(NC(=O)NC(C)C)cc3C(=O)N2C)O1 | + | 0.0 | 6 | 6 | 1.9
13 | O=C(Cc1ccc(NC(=O)C2CCN(C(=O)CCc3ccccc3)CC2)cc1)Nc1ccc(C(=O)N2CCOCC2)cc1 | i | 0.2 | -4 | -9 | -1.7
14 | C[C@H](CO)N1C[C@H](C)[C@H](CN(C)CC2CCCCC2)Oc2ccc(NC(=O)CCN3CCOCC3)cc2CC1=O | i | 3.3 | 4 | 5 | 0.2
15 | O=C(N[C@H]1CC[C@@H](CCNS(=O)(=O)c2ccc(F)cc2)O[C@@H]1CO)C1CCC1 | i | 0.2 | 0 | -2 | -1.9
16 | Cc1noc(C)c1NC(=O)N(C)C[C@H]1Oc2ccc(NC(=O)CCN3CCOCC3)cc2CC(=O)N([C@@H](C)CO)C[C@@H]1C | i | -11 | 0 | 7 | -2.3
17 | C[C@H]1CN([C@@H](C)CO)S(=O)(=O)c2ccc(C#CC3CC3)cc2O[C@@H]1CN(C)Cc1ccc(F)cc1 | i | 2.0 | -8 | -16 | 0.0
18 | C/C=C/c1ccc2c(c1)O[C@H](CN(C)CCC)[C@H](C)CN([C@H](C)CO)S2(=O)=O | i | 19 | 5 | 9 | -0.3
19 | CN1c2ccc(-c3ccc(F)cc3)cc2[C@@H]2[C@@H](CCN2C(=O)C2CCOCC2)[C@H]1CO | i | -1.0 | -4 | 2 | 1.7
20 | COCCNC(=O)C1CCCN(C(=O)c2nc3ccccc3s2)CC1 (configuration not stated) | i | -5.9 | 8 | 7 | -1.0
21 | COc1ccc2c3c([nH]c2c1)[C@H](CO)N(C(=O)C1CC1)CC31CN(S(C)(=O)=O)C1 | i | -0.4 | 3 | 0 | -0.2
22 | CCC(=O)Nc1ccc2c(c1)OC[C@@H](C)N(C(=O)CN(C)C)C[C@@H](C)[C@@H](OC)CN(C)C2=O | i | -0.9 | 2 | 5 | 0.2
23 | C[C@@H]1CN([C@@H](C)CO)C(=O)c2cccc(NS(=O)(=O)c3ccc(Cl)cc3)c2O[C@@H]1CN(C)Cc1ccc(-c2ccccc2)cc1 | i | 1.0 | 3 | 8 | -1.8
24 | Cc1ccc(S(=O)(=O)Nc2ccc3c(c2)CC(=O)N([C@@H](C)CO)C[C@@H](C)[C@H](CN(C)C(=O)NC(C)C)O3)cc1 | i | -1.6 | 2 | 5 | -1.8
25 | C[C@@H]1CN([C@H](C)CO)C(=O)c2cc(-c3cccc(F)c3)cnc2O[C@H]1CN(C)CC1CCCC1 | i | -3.9 | 3 | 6 | -4.4

Reformatted: results already given
Results follow in this order: FGF22 binding | MLL AF4-AF9 inh | Ecoli rRNA inh | Ecoli rRNA inh OD600 | Ecoli rRNA inh RFP
#18 C/C=C/c1ccc2c(c1)O[C@H](CN(C)CCC)[C@H](C)CN([C@H](C)CO)S2(=O)=O
→ i | 19 | 5 | 9 | -0.3
#21 COc1ccc2c3c([nH]c2c1)[C@H](CO)N(C(=O)C1CC1)CC31CN(S(C)(=O)=O)C1
→ i | -0.4 | 3 | 0 | -0.2
#22 CCC(=O)Nc1ccc2c(c1)OC[C@@H](C)N(C(=O)CN(C)C)C[C@@H](C)[C@@H](OC)CN(C)C2=O
→ i | -0.9 | 2 | 5 | 0.2
#19 CN1c2ccc(-c3ccc(F)cc3)cc2[C@@H]2[C@@H](CCN2C(=O)C2CCOCC2)[C@H]1CO
→ i | -1.0 | -4 | 2 | 1.7
#24 Cc1ccc(S(=O)(=O)Nc2ccc3c(c2)CC(=O)N([C@@H](C)CO)C[C@@H](C)[C@H](CN(C)C(=O)NC(C)C)O3)cc1
→ i | -1.6 | 2 | 5 | -1.8

(continued)
item | molecule | FGF22 binding | MLL AF4-AF9 inh | Ecoli rRNA inh | Ecoli rRNA inh OD600 | Ecoli rRNA inh RFP
26 | COc1ccccc1NC(=O)Nc1ccc2c(c1)C(=O)N(C)C[C@@H](OC)[C@@H](C)CN(C)[C@@H](C)CO2 | i | -0.5 | 0 | -5 | -2.9
27 | O=C(CC1CC1)N1CC[C@@H]2[C@H](CO)Nc3ccc(-c4cccc(F)c4)cc3[C@@H]21 | i | -0.7 | -32 | -61 | -3.1
28 | O=C(NCC[C@@H]1CC[C@@H](NC(=O)C2CCCC2)[C@@H](CO)O1)c1ccc(F)cc1 | i | 0.7 | 1 | -3 | -2.6
29 | CCCNC(=O)Nc1ccc2c(c1)C(=O)N(C)C[C@H](OC)[C@@H](C)CN(C(=O)C1CCOCC1)[C@H](C)CO2 | i | -1.0 | 0 | 1 | 2.1
30 | CC(C)NC(=O)N(C)C[C@@H]1Oc2ccc(NC(=O)C3CCCCC3)cc2C(=O)N([C@H](C)CO)C[C@@H]1C | i | -2.4 | 3 | 6 | -0.2
31 | C[C@H](CO)N1C[C@H](C)[C@H](CN(C)Cc2ccc(Cl)c(Cl)c2)Oc2c(NC(=O)CCCCCC(=O)Nc3ccccc3N)cccc2C1=O | i | -3.2 | -7 | -13 | -1.5
32 | C[C@@H]1CN([C@H](C)CO)C(=O)Cc2cc(NS(=O)(=O)c3ccc(Cl)cc3)ccc2O[C@H]1CN(C)C(=O)Nc1ccc(F)cc1 | i | 1.0 | 1 | 2 | -1.3
33 | CO[C@H]1CN(C)C(=O)c2ccc(NC(=O)Nc3c(C)noc3C)cc2OC[C@H](C)N(C)C[C@@H]1C | i | -3.4 | 0 | -1 | -0.2
34 | Cc1noc(C)c1NC(=O)N(C)C[C@H]1Oc2c(NC(=O)NC3CCCCC3)cccc2C(=O)N([C@@H](C)CO)C[C@H]1C | i | -2.2 | 1 | 3 | -0.4
35 | CC1(C(=O)O)CCCN(C(=O)c2ccc3c(c2)C(C)(C)CCC3(C)C)C1 (configuration not stated) | i | 0.3 | -1 | 6 | -3.4
36 | C[C@@H]1CN([C@@H](C)CO)C(=O)c2cc(-c3cccc(C#N)c3)cnc2O[C@H]1CN(C)C(=O)C1CC1 | i | -0.1 | 6 | 10 | -1.1
37 | CC(C)C#Cc1cnc2c(c1)C(=O)N([C@H](C)CO)C[C@H](C)[C@@H](CN(C)C(=O)C1CCC1)O2 | i | -1.8 | 7 | 3 | -2.9
38 | CN(C)C(=O)c1ccc(-c2ccccc2[C@@H]2[C@@H](C#N)N(C(=O)C3CCCCC3)[C@H]2CO)cc1 | i | -1.2 | -1 | 5 | 3.9
39 | COc1ccc(CCN2CC(C(=O)OCC(=O)c3c(N)n(CC(C)C)c(=O)n(C)c3=O)CC2=O)cc1OC (configuration not stated) | i | -0.7 | -2 | -1 | 1.0
40 | C/C=C/c1ccc2c(c1)O[C@H](CN(C)C(=O)NC(C)C)[C@H](C)CN([C@H](C)CO)S2(=O)=O | i | 1.0 | -3 | -5 | -1.5
41 | Nc1ccc2cccc(O)c2c1 | i | 5.2 | -5 | -6 | -4.6
42 | CC(=O)N(C)C[C@@H]1Oc2cc(-c3ccccc3C)ccc2S(=O)(=O)N([C@@H](C)CO)C[C@@H]1C | i | -1.8 | -1 | -8 | -3.2
43 | COc1ccc(S(=O)(=O)N(C)C[C@@H]2OCCCC[C@@H](C)Oc3ccc(NC(=O)Nc4cccc5ccccc45)cc3C(=O)N([C@@H](C)CO)C[C@H]2C)cc1 | + | -14 | -4 | -3 | -5.9
44 | COCC(=O)N(C)C[C@H]1Oc2ncc(-c3ccc(F)cc3)cc2C(=O)N([C@H](C)CO)C[C@H]1C | i | 0.2 | 7 | 11 | -3.6
45 | O=C1C(CN2CCCC2)CCCC1CN1CCCC1 (configuration not stated) | i | 5.7 | 16 | 12 | 1.9
46 | CC1(C(=O)NS(=O)(=O)C2CC2)CCCN(C(=O)c2cccnc2Oc2ccccc2)C1 (configuration not stated) | i | -0.9 | 3 | 21 | -3.0
47 | O=C(CN1CCN(S(=O)(=O)c2ccc(F)c(Cl)c2)CC1)N1CCc2ccccc2C1 | i | -2.7 | -32 | -53 | -11
48 | O=C(C(=Cc1ccccc1)CN1CCCCC1)c1ccccc1 | i | 0.0 | -6 | 7 | 7.1
49 | O=C(NCC[C@H]1CC[C@@H](NS(=O)(=O)c2ccccc2F)[C@@H](CO)O1)c1ccc(F)cc1 | i | -1.1 | -3 | -3 | -1.3
50 | C[C@@H]1CN([C@@H](C)CO)C(=O)c2cc(NC(=O)NC3CCCCC3)ccc2O[C@@H]1CN(C)Cc1ccc(-c2ccccc2)cc1 | i | 0.7 | -4 | -5 | 1.9
51 | Cc1ccc(-c2ccc([C@@H]3[C@H]4CN(C(=O)c5cccnc5)CC(=O)N4[C@H]3CO)cc2)cc1 | i | -8.7 | 0 | -12 | -0.3
52 | CC(C)NC(=O)N1[C@@H](CO)[C@@H](c2ccccc2)C12CN(Cc1ccc(F)cc1)C2 | i | 0.7 | -4 | -4 | -0.5
53 | CN(Cc1ccc(Cl)cc1)C(=O)c1ccccc1SCC(=O)N1CCCC1 | i | 0.1 | -2 | 3 | 2.3
54 | CC(C)C#Cc1cnc2c(c1)C(=O)N([C@H](C)CO)C[C@H](C)[C@@H](CN(C)C(=O)CC1CC1)O2 | i | -12 | 3 | 13 | -4.6
55 | C[C@@H]1CN([C@H](C)CO)C(=O)c2cc(NC(=O)Cc3cn(C)c4ccccc34)ccc2O[C@H]1CN(C)Cc1ccc(C(F)(F)F)cc1 | i | -1.6 | 3 | -6 | -2.2
56 | CC(C)C#Cc1ccc([C@H]2[C@@H](CO)N3CCCCN(C(=O)Nc4ccccc4)C[C@H]23)cc1 | i | 9.5 | -26 | -30 | 1.8
57 | O=C(CCNS(=O)(=O)c1ccccc1C(F)(F)F)NCCCc1ccccc1 | i | 1.2 | 0 | -2 | 4.6
58 | COCC#Cc1cnc2c(c1)C(=O)N([C@@H](C)CO)C[C@H](C)[C@H](CN(C)Cc1ccc(F)cc1)O2 | i | -1.6 | 1 | 10 | 1.5
59 | CC(C)C[C@@H](CN1CCC[C@H]1CN1C(=O)C(=O)NC[C@@H]1Cc1ccc(O)cc1)N1C[C@H](Cc2ccccc2)N(CCc2ccccc2)C(=O)C1=O | i | -1.6 | -14 | -24 | 8.5
60 | CC1(C(=O)Nc2cccc3cccnc23)CCN1Cc1csc2ccccc12 (configuration not stated) | i | 3.2 | 12 | 24 | 5.1
61 | COc1ccccc1S(=O)(=O)N[C@@H]1CC[C@@H](CC(=O)N2CCN(C)CC2)O[C@@H]1CO | i | -1.3 | 3 | 3 | -0.6
62 | CCN(CC)S(=O)(=O)c1ccc(N2CCN(C)CC2)c(NC(=O)CN2C(=O)NC3(CCCCC3)C2=O)c1 | i | 1.6 | 9 | 1 | -0.5
63 | CN1C(=O)c2cc(NC(=O)C3CCCC3)ccc2OC[C@H]2O[C@H](CC(=O)NCc3ccccc3F)CC[C@@H]21 | i | -0.1 | 0 | 9 | -0.7

Assay outcomes from PubChem.
